ClpP mod – qHTS Assay for Activators of ClpP; ATP-dependent Clp protease proteolytic subunit (Bacillus subtilis (strain 168)), P80244; purified B. subtilis ClpP, FRET peptide cleavage, 20 min; Potency, µM (top dose mostly 57.5 µM), without a hit: at the highest dose activity change, negative = active; 340,000 compounds, 1.9% hits; AID 651965, 2013; active = well fitted falling curve with a large enough effect; inconclusive = small, poorly fitted or top-dose-only effect; inactive = no such curve, though single readings can be large or run the other way; further: potency means the concentration at half of the fitted maximal effect; the source files actives as falling curves though it sought activators and does not explain the sign; nearly all actives have a fitted effect of over 65% in size; many hits overshoot -100%
Target sequence (P80244 whole entry, looked up): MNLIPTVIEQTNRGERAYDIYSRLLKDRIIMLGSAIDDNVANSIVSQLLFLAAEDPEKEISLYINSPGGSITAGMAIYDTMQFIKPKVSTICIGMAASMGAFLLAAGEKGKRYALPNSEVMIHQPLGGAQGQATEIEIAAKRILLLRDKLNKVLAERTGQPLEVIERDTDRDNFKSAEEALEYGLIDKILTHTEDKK
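Purified B. subtilis ClpP, 10 microg/mL final in Tris/HCl pH8 with KCl, BSA, glycerol and Tween-20, cleaved an Abz/nitrotyrosine-quenched decapeptide. Fluorescence (ex 320, em 430) was read at 0 and 20 min at room temperature. Delta was normalized to 5.8 microM ADEP and DMSO/no-enzyme controls.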
TRPML1 blocker – blocks the human TRPML1 channel | Q9GZU1 | TRPML1-inducible cells, Ca2+ dye fluorescence, FDSS; active compounds read low; inhibition of EC80 agonist-evoked calcium signal | activity change, negative = inhibition, % (concentration not given with the values) | 390,000 compounds, 0.02% hits; in the data active means activity change below about -50%; inconclusive means about -30% to -50%; inactive means above about -30%;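 further: stimulus is agonist 54-4 at its EC80 concentration; on the % scale 0 is the no-effect control and ±100 the full control effect; the text of the record puts the active cut at -80%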
Target sequence (Q9GZU1 whole entry, looked up): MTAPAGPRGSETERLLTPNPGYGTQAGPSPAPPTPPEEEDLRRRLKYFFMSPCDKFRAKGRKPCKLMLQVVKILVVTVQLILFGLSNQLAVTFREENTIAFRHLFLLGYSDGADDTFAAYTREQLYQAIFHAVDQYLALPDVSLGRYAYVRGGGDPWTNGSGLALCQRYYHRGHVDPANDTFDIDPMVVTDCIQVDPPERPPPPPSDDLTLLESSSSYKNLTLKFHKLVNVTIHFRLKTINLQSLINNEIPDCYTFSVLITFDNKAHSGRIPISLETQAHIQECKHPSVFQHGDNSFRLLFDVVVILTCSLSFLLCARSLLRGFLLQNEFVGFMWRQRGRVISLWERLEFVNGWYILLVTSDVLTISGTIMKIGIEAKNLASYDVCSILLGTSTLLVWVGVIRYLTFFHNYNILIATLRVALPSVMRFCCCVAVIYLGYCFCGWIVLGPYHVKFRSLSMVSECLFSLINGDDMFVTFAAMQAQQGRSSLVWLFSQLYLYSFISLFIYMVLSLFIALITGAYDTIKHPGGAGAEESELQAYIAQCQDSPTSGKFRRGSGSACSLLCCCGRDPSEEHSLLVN
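Calcium fluorescence in TRPML1-DL cells induced overnight with Tet: a 110 s read after compound pin addition, then a 110 s antagonist read after challenge with 54-4 at 4 uM final (EC80).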
* = called active by the depositor; u = inconclusive.

SMILES	ClpP mod	TRPML1 blocker
Cc1ccc(CN(C(=O)Nc2cccc(Cl)c2)c2ccccn2)cc1	-5.5%	43
CCOc1ccc(C(=O)c2oc3ccccc3c2NC(=O)Cc2coc3cc(C)cc(C)c23)cc1	-1.9%	6
Cc1c(C(=O)Nc2cccc(C(F)(F)F)c2)oc2ccc(S(=O)(=O)N3CCC4(CC3)OCCO4)cc12	-2.8%	-26
COc1ccc(/C=C\c2onc(C)c2S(=O)(=O)N2CCC(C(=O)Nc3ccc(C)c(F)c3)CC2)cc1	-10%	-11
CCOC(=O)c1ccc(N2C(=O)c3n[nH]c(-c4cccs4)c3C2c2ccc(OCC)cc2)cc1 (stereo not drawn)	-13%	16
CCn1c(=O)cc(OCC(=O)NCc2ccc(F)cc2Cl)c2ccccc21	-3.2%	-14
Cc1nn(C(C)C(=O)Nc2ccc(C(C)C)cc2)c(=O)c2c1sc1ccccc12 (stereo not drawn)	-1.9%	27
Cc1c(C(=O)O)oc2c1-c1nn(Cc3ccccc3Cl)cc1CC2	4.3%	-27
COc1ccccc1CN1CCN(C2CCN(C(=O)Nc3ccccc3)CC2)C(=O)C1=O	-1.3%	-10
Cc1ccccc1Nc1c(-c2cccnc2)nc2ccc(Cl)cn12	u	6

Compound profiles, from the list above. Order of screens: ClpP mod | TRPML1 blocker
Cc1ccc(CN(C(=O)Nc2cccc(Cl)c2)c2ccccn2)cc1 as listed: -5.5% | 43
Cc1ccccc1Nc1c(-c2cccnc2)nc2ccc(Cl)cn12 as listed: u | 6
COc1ccccc1CN1CCN(C2CCN(C(=O)Nc3ccccc3)CC2)C(=O)C1=O as listed: -1.3% | -10

Some of the entries so far, as a markdown table.
| structure | ClpP mod | TRPML1 blocker |
| --- | --- | --- |
| CCOc1ccc(C(=O)c2oc3ccccc3c2NC(=O)Cc2coc3cc(C)cc(C)c23)cc1 | -1.9% | 6 |
| Cc1c(C(=O)Nc2cccc(C(F)(F)F)c2)oc2ccc(S(=O)(=O)N3CCC4(CC3)OCCO4)cc12 | -2.8% | -26 |

(more compounds)
SMILES	ClpP mod	TRPML1 blocker
CCCCOc1ccc(C(C)NC(=O)c2cccc(Nc3nc4ccccc4n4nnnc34)c2)cc1 (stereo not drawn)	-35%	10
O=C(NCc1ccccc1)c1ccc2c(c1)N(Cc1ccc(F)cc1)CCS2	4.3%	18
COc1ccccc1Cn1ccn(Cc2ccc(C)cc2)c(=O)c1=O	-2.5%	10
COc1cccc(CC(=O)NCc2ccc3c(c2)CCN3C(C)=O)c1	-1.7%	18
CCCCC(=O)Nc1cccc(OCc2cc(=O)n3ccccc3n2)c1	-6.2%	-3
Cc1c2cnn(-c3ccccc3)c(=O)c2c(C)n1CC(=O)N1CCN(c2cccc(Cl)c2)CC1	0.8%	15
O=C(NCc1ccccc1)c1ccc2nc(CCc3ccccc3)oc2c1	-3.3%	5
COc1ccc(OC)c(NC(=O)c2ccc3nc(C(C)C)oc3c2)c1	-2.9%	18
O=C(Nc1cccc(C(F)(F)F)c1)C1CCCN1S(=O)(=O)c1cccc2nsnc12 (stereo not drawn)	2.1%	-11
COc1cc(C2c3c(-c4ccccc4O)n[nH]c3C(=O)N2Cc2ccco2)ccc1OCC(C)C (stereo not drawn)	2.3%	43
CCC(=O)N1CCc2cc(Br)cc(S(=O)(=O)CCC(=O)NCc3ccccc3)c21	1.6%	-9
CCOc1ccc(CCNC(=O)CCc2c(C)nc3c(c(C)nn3-c3ccccc3)c2C)cc1OCC	3.6%	14
CC(C)CC(NC(=O)C1CCCCC1)C(=O)Nc1cccc(C(F)(F)F)c1 (stereo not drawn)	0.3%	-15
COc1ccc(-c2nnc(SCC(=O)N3CCc4ccccc43)o2)cc1OC	-3.9%	-9
COc1cccc(C(C(=O)NCc2ccccc2)N(C(=O)Cn2nnc3ccccc32)c2cccc(C(C)=O)c2)c1 (stereo not drawn)	2.5%	1
COc1cccc(-c2cc(C(F)(F)F)n3nc(C)c(-c4ccccc4)c3n2)c1	2.2%	-5
Cc1c(Cl)cccc1NC(=O)c1cnc2sc(N3CCCC3)nn2c1=O	-0.8%	0
COc1ccc(Nc2cc(C(=O)NCc3ccccc3)c3ccccc3n2)cc1	5.2%	-22
CCOc1ccc(N(CC)C(=O)CSc2n[nH]c(-c3ccccc3)n2)cc1	-1.1%	-12
CN(C)c1ccc(C(=O)Nc2cccc(-c3nc4cccnc4s3)c2)cc1	-1.6%	-1
O=C(CCn1c(=O)c2cccn2c2cccnc21)NCc1cccc(Br)c1	-12%	7
CCOC(=O)c1ccc(NC(=O)CSc2cc(=O)n(CC)c3ccccc23)cc1	-4.2%	1
COc1ccc(N2CCN(C(=O)c3ccc(C)c(NC(=O)c4nsc5ccccc45)c3)CC2)cc1	0.2%	-23
Cc1cccn2cc(-c3cccc(NS(=O)(=O)c4ccc(Cl)c(Cl)c4)c3)nc12	-11%	-3
CCOc1ccccc1NC1(c2ccccc2)C(=O)c2ccccc2C1=O	-3.2%	-19
Cc1ccc2c(=O)cc(C(=O)N(Cc3ccc(N(C)C)cc3)C3CCS(=O)(=O)C3)oc2c1 (stereo not drawn)	-4.8%	9
CCOc1ccccc1NC(=O)N(Cc1ccc(C)o1)C1CCN(C(C)=O)CC1	0.4%	-17
Cc1ccc(-c2nn(-c3cccc([N+](=O)[O-])c3)c3c2cnc2ccc(F)cc23)cc1	1.1%	4
CC(C)CCn1c(SCc2ccc(F)cc2Cl)nc2ccsc2c1=O	0.8%	-14
COc1ccccc1CNC(=O)CSc1nc2nc(C)c(Cc3ccccc3C)c(C)n2n1	0.0%	48
COCCNC(=O)c1cccc(Nc2nc3ccccc3n3nnnc23)c1	4.9%	-8
COc1cc(NC(=O)CSc2nccn2C)cc(OC)c1OC	0.2%	-5
O=C(COc1ccccc1)Nc1nnc(SCc2cc(=O)c3ccccc3[nH]2)s1	0.0%	2
COC(=O)c1ccc(C(=O)OC)c(NC(=O)c2c(-c3ccccc3)noc2C)c1	-2.2%	33
CC(C(=O)Nc1ccccc1C(F)(F)F)n1nc(-c2ccccc2)c2c(c1=O)CCCC2 (stereo not drawn)	-0.7%	15
CCCc1cc(N2CCN(c3ccccc3)CC2)n2cnnc2n1	-1.5%	57
CCNc1ccc(-c2nc(-c3ccccn3)no2)cc1[N+](=O)[O-]	0.7%	-10
COc1ccc(C2N=C(N)Nc3nc4ccccc4n32)c(OC)c1OC (stereo not drawn)	-1.1%	10
Cc1ccc2c(c1)N(C(=O)CCC(=O)NCc1cccc(F)c1)CC(C)O2 (stereo not drawn)	0.8%	5
COC(=O)c1ccc(CSc2nc3c([nH]c4ccccc43)c(=O)n2-c2cc(C)cc(C)c2)o1	-0.3%	-17

Another view of 3 compounds above:
> CCOc1ccc(CCNC(=O)CCc2c(C)nc3c(c(C)nn3-c3ccccc3)c2C)cc1OCC
  ClpP mod: 3.6%
  TRPML1 blocker: 14

> CC(C)CC(NC(=O)C1CCCCC1)C(=O)Nc1cccc(C(F)(F)F)c1 (stereo not drawn)
  ClpP mod: 0.3%
  TRPML1 blocker: -15

> COc1ccc(-c2nnc(SCC(=O)N3CCc4ccccc43)o2)cc1OC
  ClpP mod: -3.9%
  TRPML1 blocker: -9

Compounds from the list above that contain two or more sulfur atoms (3):
SMILES	ClpP mod	TRPML1 blocker
O=C(Nc1cccc(C(F)(F)F)c1)C1CCCN1S(=O)(=O)c1cccc2nsnc12 (stereo not drawn)	2.1%	-11
CC(C)CCn1c(SCc2ccc(F)cc2Cl)nc2ccsc2c1=O	0.8%	-14
O=C(COc1ccccc1)Nc1nnc(SCc2cc(=O)c3ccccc3[nH]2)s1	0.0%	2

Continued:
SMILES	ClpP mod	TRPML1 blocker
CCC1CN(C(=O)Nc2ccc(C)c(F)c2)c2ccccc2S1 (stereo not drawn)	-2.4%	0
Cc1nc2cccnc2n1-c1cccc(C(=O)NCCc2ccc(S(N)(=O)=O)cc2)c1	9.8%	-11
CCC(=O)N1c2ccccc2CC1C(=O)NCCN1CCN(c2cccc(C)c2C)CC1 (stereo not drawn)	-0.2%	-5
CC(C)OCCCn1c(SCC(=O)c2ccccc2)nc2c(sc3ccccc32)c1=O	-0.2%	-1
Cc1cccc(C(C)C)c1NC(=O)Cn1c(=O)oc2cc(S(=O)(=O)N3CCCC3)ccc21	0.0%	12
CCCc1cc(N2CCN(c3ccccc3F)CC2)n2cnnc2n1	1.8%	4
COc1ccc(-c2nn(-c3ccccc3)cc2C(=O)Nc2ccccc2OC)cc1	u	44
CCOc1ccc(C(=O)Nc2c(C(=O)c3ccc(OC)cc3)oc3ccccc23)cc1	-8.3%	21
CCCC(=O)N1CC(=O)Nc2ccc(Cl)cc2C1c1ccccc1 (stereo not drawn)	-2.0%	-15
COc1ccccc1NC(=O)c1cc(C2CC2)nc2c1c(C)nn2-c1ccc(C)cc1	4.1%	-12
CCN(CC)c1ccc(NC(=O)Cn2c3ncccc3c(=O)n2-c2ccccc2)c(C)c1	24%	-16
O=C(NCC(c1cccnc1)N1CCN(Cc2ccccc2)CC1)C(=O)Nc1ccc(F)cc1 (stereo not drawn)	-0.2%	-6
COc1cccc(CNC(=O)CN(C)S(=O)(=O)c2ccc3[nH]c4c(c3c2)CCCC4)c1	-2.4%	-9
Cc1ccccc1OCC(=O)Nc1ccccc1C(=O)OCc1cc(=O)n2nc(C3CC3)sc2n1	-5.6%	8
CC1CCN(C(=O)Cn2ncc3c4ccccc4n(Cc4ccc(Cl)cc4)c3c2=O)CC1	-26%	8
CCOc1ccccc1NC(=O)c1cc2c(=O)oc3ccccc3c2s1	1.6%	-16
CCOc1ccc(NC(=O)c2cc(S(=O)(=O)N3CCCC3)c[nH]2)cc1	0.4%	9
Cc1c(Cl)cccc1-n1ncc(C(=O)NC2CCCC2)c1C1CCN(C(=O)OC(C)(C)C)CC1	0.8%	2
CC(C)c1ccccc1NC(=O)C(Cc1c[nH]c2ccccc12)NC(=O)OC(C)(C)C (stereo not drawn)	1.1%	1
O=C(Nc1ccc2nc(SCCOc3ccccc3Cl)sc2c1)c1ccc2c(c1)OCO2	u	-15
Cc1ccc(/C=C/c2onc(C)c2S(=O)(=O)N2CCC(C(=O)NCc3ccc(Cl)cc3)CC2)cc1	-2.8%	5
CCc1nnc(SCc2nc(-c3ccccc3Cl)oc2C)c2cc3sc(C)cc3n12	-17%	5
COc1ccc(C(=O)NCc2ccc3c(c2)CCN3C(=O)c2cccc(C)c2)cc1OC	14%	13
CCOC(=O)c1[nH]c(C)c(CCC(=O)NC(C)c2ccccc2)c1C (stereo not drawn)	1.0%	7
Cc1ccc(N(C(=O)c2cccc(C)c2)S(=O)(=O)c2ccc(Cl)cc2)cc1	-2.0%	8
CSc1ncc(C(=O)N2CCN(c3cc(Cl)ccc3C)CC2)c(C)n1	-1.2%	35
Cc1cccc(CNC(=O)CN2C(=O)CCCc3ccccc32)c1	0.0%	12
O=C(Cn1c(=O)nc(-c2ccccc2)c2ccccc21)NCc1ccc(Cl)cc1	-4.5%	21
CCOC(=O)CSc1nc2c(sc3cccc(F)c32)c(=O)n1Cc1ccc(OC)cc1	-0.6%	-10
CCCCNc1nc2c(-c3cccc(Br)c3)nnn2c2ccccc12	-8.3%	23
CCc1nnc(NC(=O)c2nc(SCc3cccc(C)c3)ncc2Cl)s1	-0.1%	12
CCCOc1cccc(C2c3c(-c4ccccc4O)n[nH]c3C(=O)N2Cc2ccco2)c1 (stereo not drawn)	-3.6%	3
COC(=O)c1ccc(NC(=O)N2CCC(CN3CCc4ccccc4C3)CC2)cc1	-9.2%	-4
CCCCNc1oc(-c2ccc(COc3ccccc3C)o2)nc1C#N	4.3%	10
c1ccc(-c2nnc(CN3CCN(c4ccccn4)CC3)o2)cc1	-14%	-8
Cc1coc2cc3oc(=O)c(CCC(=O)NCc4ccccc4Cl)c(C)c3cc12	-21%	7
CCOC(=O)c1ccc(NC(=O)C(CC)Sc2nnc3c4ccccc4n(C)c3n2)cc1 (stereo not drawn)	0.5%	11
CCc1cc(C(=O)NCc2ccc(F)cc2)no1	-1.4%	7
O=C(Nc1ccccc1C(F)(F)F)c1noc2c1CCCCC2	-0.6%	4
Clc1cccc(-c2csc(-c3nc(-c4ccc(Br)s4)cs3)n2)c1	0.5%	13
Cc1cc(C)n(-c2nc(C)c(C)c(=O)n2CC(=O)Nc2ccc(Cl)c(Cl)c2)n1	1.1%	-1
CCCC(=O)Nc1ccc(NC(=O)c2sc3ccccc3c2Cl)cc1	-0.7%	3
Cc1ccc(NC(=O)CSc2nc3ccccc3c(=O)n2CCC(=O)NC2CCCCC2)cc1C	-0.2%	-19
CCOc1ccc(CCNc2nc3c(-c4ccc(C)cc4)nnn3c3ccccc23)cc1OCC	-17%	33
O=C(NCc1ccccc1Cl)c1cnc2sc(N3CCOCC3)nn2c1=O	4.2%	3
Cc1cn2c(=O)c(S(=O)(=O)Nc3ccc(N4CCOCC4)cc3)c(C)nc2s1	0.4%	39
CCOc1ccc(NC(=O)Cn2c(=O)n(CC3CCC(C(=O)NCCc4ccccc4)CC3)c(=O)c3ccccc32)cc1 (stereo not drawn)	2.3%	-10
O=C(c1ccccc1)n1nc(-c2ccccc2)nc1NCc1ccc(F)cc1	-3.4%	4

Compound activity: PubChem BioAssay, National Center for Advancing Translational Sciences (NCATS)

Not all compounds are listed; count on the stated rates, not on these rows.
